Biofilm kill mix: mixture kills Candida albicans biofilm cells; C. albicans biofilm persisters + clotrimazole, fluorescence viability; primary screen in compound mixtures of four per well; 120,000 compounds, 0.02% hits; AID 1242; inhibition, % at 7.6 µM;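 active = inhibition above 30.3% in the primary screen of four-compound pools, then above 30% when the compound was retested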;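 also: compounds exposed to preformed 24 h biofilms for 48 h; the number belongs to the whole pool; some results filed as inactive read as strong as hits; inactives centre near 12; 0% = biofilm with clotrimazole alone and 100% = kill control; retested singly at about 60 µM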
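Test system: C. albicans biofilms. Buffer or medium: RPMI/MOPS medium, pH 7.0. Timing: 48 h compound exposure at 37 °C. Technique: Alamar Blue fluorescence. Evaluation: percent inhibition of biofilm viability.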
* marks the source's active call; other numbers are inactive results. An excerpt; the hit share may differ from the screen's.

SMILES	Biofilm kill mix
CC(C)c1nc2ccccc2n1CC(O)COC1CCCCC1 (stereo not drawn)	14.4
CCC(=O)N(CCC(c1ccc(C)cc1)c1ccco1)Cc1ccco1 (stereo not drawn)	11.6
COc1cccc(/C=C/C(=O)Nc2cccc(C(C)=O)c2)c1OC	13.7
Cc1ccc(S(=O)(=O)N(CC(=O)Nc2ccccc2C(=O)O)c2ccccc2C)cc1	8.0
O=C(NNS(=O)(=O)c1ccc(Cl)cc1)c1ccc(S(=O)(=O)N2CCCCC2)cc1	10.2
Cc1cc(C)n(-c2ncnc3ccccc23)n1	4.0
Cc1ccccc1NC(=O)CSc1ccsc1[N+](=O)[O-]	11.6
Cc1cc[n+](CC(=O)c2ccc(NC(=O)c3ccccc3)cc2)cc1	17.3
COCCN(CCOC)S(=O)(=O)c1ccc(C(=O)Nc2ccc(S(=O)(=O)Nc3nccc(C)n3)cc2)cc1	2.2
Cc1ccc(/C=C2\CC(C)CC3=C2NC(=S)NC3c2ccc(C)cc2)cc1 (stereo not drawn)	14.2
Cc1c(CN2CCCC(CO)(Cc3cccc(Cl)c3)C2)cnn1C (stereo not drawn)	-3.1
COc1ccc(-n2nc3c(=O)[nH][nH]c3cc2=O)cc1	1.8
Clc1ccc(C2=NN(c3ccccc3)C(c3ccco3)C2)cc1 (stereo not drawn)	17.1
COc1cc(-n2c(=O)c3ccccc3n(CC(=O)c3ccc(Br)cc3)c2=O)cc(OC)c1OC	12.9
COc1cccc(-c2nnc(N)o2)c1	8.9
CCn1c(/C=C/Nc2ccccc2)[n+](CC)c2ccc(Cl)cc21	12.3
COc1ccc(S(=O)(=O)N(C(=O)c2ccncc2)c2ccc3oc4c(c3c2)CCCC4)cc1	19.2
CCOc1ccc(C(C)=O)cc1NC(=O)/C=C\C(=O)O	15.8
N=C1C(c2ccccc2)=C(O)CN1NC(=O)c1ccc(Cl)cc1	12.6
CO[C@H]1C=CO[C@@]2(C)Oc3c(C)c(O)c4c(O)c(c(C=NN5CCN(C)CC5)c(O)c4c3C2=O)NC(=O)C(C)=CC=C[C@H](C)[C@H](O)[C@@H](C)[C@@H](O)[C@@H](C)[C@H](OC(C)=O)[C@@H]1C	7.0
CC(=O)NC(Cc1ccccc1)C(=O)NC1CCN(c2ncccc2[N+](=O)[O-])CC1 (stereo not drawn)	13.2
CC(C)OP(=O)(c1ccc(N(C)C)cc1)C(O)c1ccccc1F (stereo not drawn)	12.8
O=C(N/N=C/c1ccccn1)c1cccc(S(=O)(=O)N2CCCC2)c1	16.8
O=C(c1nc2ccccn2c1CNCCn1ccc2ccccc21)N1CCOCC1	26.2
Cc1ccccc1NC(=O)/C(C#N)=C/c1ccccc1C(F)(F)F	4.1

Random excerpt: 6 records from the list.
SMILES	Biofilm kill mix
COc1cccc(/C=C/C(=O)Nc2cccc(C(C)=O)c2)c1OC	13.7
O=C(c1nc2ccccn2c1CNCCn1ccc2ccccc21)N1CCOCC1	26.2
CC(C)c1nc2ccccc2n1CC(O)COC1CCCCC1 (stereo not drawn)	14.4
Cc1cc(C)n(-c2ncnc3ccccc23)n1	4.0
CC(=O)NC(Cc1ccccc1)C(=O)NC1CCN(c2ncccc2[N+](=O)[O-])CC1 (stereo not drawn)	13.2
CCC(=O)N(CCC(c1ccc(C)cc1)c1ccco1)Cc1ccco1 (stereo not drawn)	11.6

Additional entries follow:
SMILES	Biofilm kill mix
Cc1nonc1OCCNCc1c(C(=O)N2CCCCCCC2)nc2ccc(Cl)cn12	12.1
CN(Cc1nc(-c2cnccn2)no1)CC1CCN(Cc2ccccc2)CC1	16.2
Cc1ccc(-c2nc(C)sc2CC(=O)Nc2nnc(C)s2)cc1	17.0
NC(=O)c1ccc(NC(=O)COC(=O)c2ccccc2Nc2ccccc2)cc1	2.3
C=CCc1cc(Cl)ccc1OCCCNC(C)C	22.3
CCCC(O)(c1ccc(OC)cc1)C(CN1CCOCC1)c1ccccc1 (stereo not drawn)	20.9
O=C(NCc1ccccn1)c1ccccc1-c1ccccc1	29.2
O=C(O)CCCNc1n[nH]c(=O)[nH]c1=O	5.8
Cc1ccc(SCC(=O)Nc2cccc(C)c2)cc1	16.0
Cc1cc(N=NC(=O)c2ccccc2)ccc1O	15.7
O=C(Cn1cc(SCc2ccccc2Cl)c2ccccc21)N1CCOCC1	12.1
COc1ccc(NC(=O)COc2ccc(/C=N/O)cc2OC)cc1	11.0
O=c1cc2c(nn1Cc1cccc([N+](=O)[O-])c1)-c1ccccc1CC2	0.4
O=C(Nc1ncc(C(F)(F)F)cc1Cl)c1ccc(S(=O)(=O)N2CCOCC2)cc1	3.5
CC(=O)Nc1ccccc1OC(C)C(=O)N1CCC(C)CC1 (stereo not drawn)	-0.6
Cc1ccc(-n2c(Cc3ccccc3)n[nH]c2=S)c(C)c1	13.9
COc1ccc(-c2nnn3c2nc(NCc2ccccc2)c2ccccc23)cc1	0.9
Cc1cc(C(=O)COC(=O)c2cc(Cl)ccc2N)c(C)n1Cc1ccco1	9.9
Cc1ccc(NC(=S)N(CCCN(C)C)Cc2cc3cc4c(cc3[nH]c2=O)OCO4)c(C)c1	26.0
O=C1C2CCCCC2C(=O)N1c1ccc(NC2CCN(Cc3ccccc3)CC2)c([N+](=O)[O-])c1 (stereo not drawn)	17.8
Cc1cccc(/C(N)=N/OC(=O)c2ccccc2Cl)c1	2.5
COc1ccc(-c2nc(C(F)(F)F)c(OC)o2)cc1OC	12.6
O=C(Nc1cccc(S(=O)(=O)NC2=NCCCCC2)c1)c1cc(-c2ccco2)nc2ccccc12	17.3
O=C(O)c1nc(-c2ccccc2)n(-c2ccccc2)n1	23.5
Cc1cc(-c2nn(-c3ccccc3F)cc2CN2CCCC(C(N)=O)C2)c(C)s1 (stereo not drawn)	-3.3
The results go on.
SMILES	Biofilm kill mix
O=C(COc1ccc(-c2ccccc2)cc1)N1CCCC1	8.2
CCCc1c(C)nn(-c2ncccc2[N+](=O)[O-])c1C	-10.0
COC(=O)Nc1nnc(SCc2ccc(C)cc2)s1	12.3
COc1ccc(CC(=O)NCC(=O)N/N=C/c2ccc(C)o2)cc1	8.6
CC1CCN(c2c(NCc3ccc(C(=O)N(C)C4CCCCC4)cc3)c(=O)c2=O)CC1	16.6
Cc1ccc(OCC(=O)Nc2cccc(-c3nnc(-c4ccccc4)o3)c2)c(C)c1	13.2
O=C(/C=C/c1ccc2ccccc2n1)N1CCN(S(=O)(=O)c2ccccc2F)CC1	5.2
COCCCNC(=O)CCC(=O)NNc1nc2ccccc2c2nc(-c3ccccc3)nn12	-3.9
O=C(NCC1(c2ccccc2)CCOCC1)c1cccs1	30.5
Cc1ccc(Cn2cccc2/C=C2/C(=N)N3C=CSC3=NC2=O)cc1	17.9
O=C(O)c1c(N2CCCCC2)ccc([N+](=O)[O-])c1N1CCCCC1	10.8
COc1ccc(CNC(=O)CSCc2cccc(Cl)c2)cc1	15.6
COc1ccc(NC(=O)c2ccccc2Sc2ccc(NC(C)=O)nc2)cc1	12.4
O=C(Nc1ccccn1)c1ccc(Cl)c([N+](=O)[O-])c1	29.4
Cc1cccc(Cn2nnc3c2C(=O)c2ccccc2C3=O)c1	5.2
COc1cccc(-n2nnc3c(=O)n(Cc4ccccc4Cl)cnc32)c1	11.7
Cc1ccsc1/C=N/N1CCOCC1	19.2
CCOC(=O)Nc1ccc(S(=O)(=O)N2CCC(C)CC2)cc1	12.3
CC(O)c1cccc(NC(=O)Cc2cccc3ccccc23)c1 (stereo not drawn)	-3.2
O=C(CN1CCCCC1)N=Nc1c(O)[nH]c2ccccc12	6.5
COc1ccccc1/C=C/C=N/NC(=O)c1cnccn1	18.1
CC(=O)c1ccc(NC(=O)C(C)N(C)CC(=O)Nc2ccccc2Cl)cc1 (stereo not drawn)	11.7
CC(C)C(=O)N=C1SC2CS(=O)(=O)CC2N1Cc1ccccc1 (stereo not drawn)	19.5
CC(C)C[C@H](NC(=O)c1nc[nH]c1C(=O)N[C@@H](CCCCNC(=O)OC(C)(C)C)C(=O)OC(C)(C)C)C(=O)OC(C)(C)C	13.6
Cc1cc(C)c(NC(=O)COC(=O)C2CCC(=O)N2)c(C)c1 (stereo not drawn)	9.6
More compounds follow.
SMILES	Biofilm kill mix
COC(=O)C1=C(C)N(C2CCCCC2)C(=O)/C1=C\c1cccs1	15.2
N#Cc1ccc(NC(=O)COC(=O)CCNS(=O)(=O)c2ccccc2)cc1	4.1
Cc1ccc(C(C(=O)NC2CCCC2)N(Cc2cccs2)C(=O)c2csnn2)o1 (stereo not drawn)	9.4
CC(=O)Nc1cccc(-n2nnc(SCC(N)=O)n2)c1	10.2
C[C@@H]1C=C(C(=O)O)O[C@H](OCc2ccc(CO)cc2)C1	6.0
O=C(O)C1Cc2ccccc2CN1C(=O)COc1ccc(Cl)cc1 (stereo not drawn)	6.7
CCCCCc1cc(=O)oc2c(C(CCN3CCCC(C)C3)c3ccc(OC)cc3)c(OC)cc(OC)c12 (stereo not drawn)	15.6
O=C(NCc1cccnc1)C(=O)NCC1OCCN1S(=O)(=O)c1ccc(F)cc1 (stereo not drawn)	2.4
O=C(N/N=C/c1ccncc1)c1ccc2c(c1)OCO2	10.5
CC(C)(C)c1ccc(/C=C(\C#N)C(=O)NCCN2CCOCC2)cc1	-0.3
CCN1CCN(c2cc3c(nn2)Oc2ccccc2N3C)CC1	19.6
O=C(/C=C/c1ccccc1)Nc1ccc(Br)cn1	16.0
Oc1ccccc1N1CCN(C(=S)NCc2ccccc2)CC1	14.2
COc1cc2[nH]c(=S)nc(NCCc3ccc(S(N)(=O)=O)cc3)c2cc1OC	6.9
O=C(COC(=O)c1ccccc1-c1ccccc1[N+](=O)[O-])c1ccccc1	9.9
O=C(N/N=C/c1ccc(OC(F)F)cc1)c1ccc(CSc2nc3ccccc3[nH]2)cc1	22.5
Cc1nn(-c2ccc(Cl)cc2Cl)c(C)c1C(=O)O	9.9
CCOC(=O)c1c(NC(=O)CN2C(=O)CN(C)C2=O)sc(C)c1C	13.8
CS(=O)(=O)Nc1ccc(N2CCN(c3ccc(C(F)(F)F)cn3)CC2)nc1	17.3
CCCOc1ccc(C(=O)C(CN2CCOCC2)c2ccccc2)cc1 (stereo not drawn)	6.6
C=CCn1c(SCc2ccc(Cl)cc2)nc2cc(C(=O)N3CCC(C(N)=O)CC3)ccc2c1=O	22.1
COc1ccccc1C1(CCNC(C)c2cccs2)CCOC(C(C)C)C1 (stereo not drawn)	3.2
CCC(=O)Nc1sc(C(=O)Nc2ccccc2F)c(C)c1C(=O)OC	20.2
Nc1nc(SCC(=O)N2CCCCCC2)[nH]c(=O)c1NC(=O)c1ccco1	10.4
COC(=O)c1cccc(NC(=S)Nc2cccc(Cl)c2C)c1	22.3

Next part; the last 7 above are carried over.
SMILES	Biofilm kill mix
CS(=O)(=O)Nc1ccc(N2CCN(c3ccc(C(F)(F)F)cn3)CC2)nc1	17.3
CCCOc1ccc(C(=O)C(CN2CCOCC2)c2ccccc2)cc1 (stereo not drawn)	6.6
C=CCn1c(SCc2ccc(Cl)cc2)nc2cc(C(=O)N3CCC(C(N)=O)CC3)ccc2c1=O	22.1
COc1ccccc1C1(CCNC(C)c2cccs2)CCOC(C(C)C)C1 (stereo not drawn)	3.2
CCC(=O)Nc1sc(C(=O)Nc2ccccc2F)c(C)c1C(=O)OC	20.2
Nc1nc(SCC(=O)N2CCCCCC2)[nH]c(=O)c1NC(=O)c1ccco1	10.4
COC(=O)c1cccc(NC(=S)Nc2cccc(Cl)c2C)c1	22.3
CCOC(=O)c1sc(NC(=O)C(C)Sc2nc(N)cc(=O)[nH]2)nc1C (stereo not drawn)	10.2
CN(C)S(=O)(=O)c1cc(NC(=O)COC(=O)Cc2ccc(Cl)cc2Cl)ccc1Cl	19.3
Cc1nn(-c2ccc(F)cc2F)c(=O)c2noc(C)c12	14.3
CCOC(=O)c1cnn(-c2ccccc2)c1NC(=O)CN1CCOCC1	4.7
Cc1c(O)ccc2c(CN(C)Cc3ccccc3)cc(=O)oc12	11.5
N#C/C(=C\c1ccc([N+](=O)[O-])cc1)c1ccccn1	12.9
CC(=O)Nc1ccc(NC(=O)CSc2nc3nc(-c4cccs4)cc(C(F)(F)F)c3c(=O)[nH]2)cc1	17.1
O=C1CCCN1CCCNC(=S)Nc1ccc(F)c(Cl)c1	6.5
CC1(C)NC(=O)N(CCOc2ccc([N+](=O)[O-])cc2)C1=O	-1.8
COc1ccc(/C=C/C(=O)N(C)C2CCCCC2)cc1Br	10.2
CCN(CC)C(=O)c1ccccc1NC(=O)c1cccc(S(=O)(=O)N(CC)CC)c1	14.8
C=CCNC(=O)C12CCC(C)(C(=O)[C@H]1Br)C2(C)C (stereo partly drawn)	-0.6
O=C(c1ccc(Cl)nc1)N1CCN(C/C=C/c2ccccc2)CC1	5.1
Nc1nonc1-n1nnc(C(=O)N/N=C/c2ccccc2Cl)c1CSc1ccccc1	-0.6
CN(C)S(=O)(=O)c1ccc(NC(=O)c2cc(-c3cccs3)nc3ccccc23)cc1	12.2
O=C(CCS(=O)(=O)c1ccccc1)Nc1ccc2c(c1)C(=O)NC2=O	4.9
COc1ccc(NC(=O)CC2C(=O)N(C)C(=S)N2Cc2ccco2)cc1 (stereo not drawn)	13.3
CC[C@H](C)[C@@H]1NC(=O)c2cc([N+](=O)[O-])cc(F)c2NCCCC[C@@H](C(N)=O)NC(=O)[C@H](CCCCN)NC1=O	13.6
C/C(=C\c1ccccc1)C(=O)Nc1nccs1	-1.9
CCOc1ccc(-n2cc(C(=O)c3cc(Cl)ccc3O)cc(C#N)c2=O)cc1	-0.7
CCOc1ccccc1C(=O)N1CCN(c2ccc(C(F)(F)F)cn2)CC1	12.2
CCN1CCN(CC(O)COc2ccc3c(C)cc(=O)oc3c2)CC1 (stereo not drawn)	10.6
COc1ccc(C(=O)NCCc2nnc(SCC(=O)Nc3ccccc3F)n2C)cc1	21.3

Compound activity (PubChem BioAssay)
